Source: PubChem BioAssay (National Center for Advancing Translational Sciences (NCATS))
HPGD block: blocks human HPGD enzyme activity. P15428. purified HPGD, NADH fluorescence kinetic, PGE2 substrate. Potency, µM, inactives show at the top dose activity change, negative = inhibition, usual class: inhibitors. hit rate 4.3% among 150,000; active = well fitted inhibition curve with a large enough effect (not every such curve was filed as active); inconclusive = small, poorly fitted or top-dose-only effect, or another doubt; inactive = no such curve, though single readings can be large or run the other way;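 further: top concentration of the series not given in the record; plate controls included wells without enzyme; inactives centre near -10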
Target sequence (P15428 whole entry, looked up): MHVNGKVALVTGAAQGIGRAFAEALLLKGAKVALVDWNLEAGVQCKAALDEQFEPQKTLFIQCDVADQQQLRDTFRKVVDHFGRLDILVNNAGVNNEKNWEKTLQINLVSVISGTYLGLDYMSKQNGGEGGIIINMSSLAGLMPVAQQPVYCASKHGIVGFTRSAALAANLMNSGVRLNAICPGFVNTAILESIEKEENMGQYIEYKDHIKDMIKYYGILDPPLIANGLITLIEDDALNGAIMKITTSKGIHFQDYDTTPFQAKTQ
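20 nM HPGD preincubated 15 min at room temperature with compound in 50 mM Tris-HCl pH 8, 0.01% Tween 20. Started with 1 mM NAD+ and 30 uM prostaglandin E2; NADH fluorescence (360/450 nm) read 5 times over 30-s intervals, last minus first.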
An asterisk follows results filed as active; ? = inconclusive. On the % scale 0 is the no-effect control and ±100 the full control effect; potency means the concentration at half of the fitted maximal effect. This is a subset (hit frequency here may not be typical).

| structure | HPGD block |
| --- | --- |
| OCCN1CCN(CC(O)COc2ccc(Cl)cc2)CC1 (stereo not drawn) | -5% |
| CC(Cc1ccccc1)C(=O)NCC1CC1 (stereo not drawn) | -6% |
| O=C(c1cc(C(F)(F)F)cc(C(F)(F)F)c1)N1CCC2(CCCN(c3ccccn3)C2)CC1 | -14% |
| CCC(c1nnnn1C(C)(C)CC)N(CCCO)Cc1cc2cccc(C)c2[nH]c1=O (stereo not drawn) | -9% |
| O=C(CSc1nc2ccccc2c(=O)n1CCCO)NCc1ccccc1 | -1% |
| CC1Oc2ccccc2C=C1/C=N/NC(=O)c1ccccc1O (stereo not drawn) | ? |
| c1ccc(-c2nc(NCC3CCCO3)c3oc4ccccc4c3n2)cc1 (stereo not drawn) | -18% |
| CCOC(=O)C1=C(O)CSC1=Nc1cccc2ccccc12 | -10% |
| CC(C)Cn1c2c(c(O)c(C(=O)Nn3c(Cc4ccccc4)nc4ccccc4c3=O)c1=O)CCCC2 | ? |
| CCOc1ccc(C2C(C(=O)c3ccco3)=C(O)C(=O)N2Cc2cccnc2)cc1OC (stereo not drawn) | -16% |
| Nc1nc(-c2cccc([N+](=O)[O-])c2)cc(-c2cc(-c3cccc([N+](=O)[O-])c3)nc(N)n2)n1 | -2% |
| C=CCNC(=O)COC(=O)c1ccc(Cl)c(S(=O)(=O)N(Cc2ccccc2)c2ccccc2)c1 | -16% |
| CC(C)(C)C(=O)NCCc1nc2ccccc2n1CC(=O)c1ccc(Cl)cc1 | -17% |
| CC1(C)Cc2ccccc2C2CC(O)C(=O)N21 (stereo not drawn) | ? |
| Cn1cnnc1Sc1ccc(C(=O)NCCC23CC4CC(CC(C4)C2)C3)cc1[N+](=O)[O-] | -5% |
| COc1cc2c(cc1OC)CN(C(=O)CSc1nnc(C)s1)CC2 | -15% |
| O=C(CSc1nncs1)NC(=O)NCc1ccccc1 | -20% |
| COC(=O)c1ccc(C(NC(=O)OCc2ccccc2)/C(=C/[C@@H](C)C(=O)Nc2ccc(OC)cc2)c2cccnc2)cc1 (stereo partly drawn) | -16% |
| O=C1Cc2ccccc2N1c1ccccc1 | 35µM* |
| Cc1ccc(C(=O)NC(NCC2CCCO2)C(Cl)(Cl)Cl)cc1 (stereo not drawn) | -10% |

Overlap with the part before: 2 entries, followed by the next part.
| structure | HPGD block |
| --- | --- |
| O=C1Cc2ccccc2N1c1ccccc1 | 35µM* |
| Cc1ccc(C(=O)NC(NCC2CCCO2)C(Cl)(Cl)Cl)cc1 (stereo not drawn) | -10% |
| Cc1nc2ccccc2c2oc(C(=O)NC3CC3)cc12 | -8% |
| Cc1ccc(NC(=O)c2ccc3nc[nH]c3c2)cc1C | -9% |
| CCOC(=O)c1oc2ccccc2c1NC(=O)CN1CCN(C)CC1 | -10% |
| Cn1c(CO)cnc1SCc1ccc([N+](=O)[O-])cc1 | -2% |
| Cc1nc2n[nH]c(N)c2c2c1COC(C)(C)C2 | -10% |
| CCc1ccccc1NC(=O)c1ccc(F)c(S(=O)(=O)N2CCC(C(N)=O)CC2)c1 | -14% |
| O=C(/C=N/O)NCCCN1CCCCCC1 | -4% |
| COCc1[nH][nH]c(=O)c1C=Nc1ccc(F)cc1F | -17% |
| N#CCCn1cc(C=C(C#N)C#N)c(-c2ccc(-c3ccccc3)cc2)n1 | ? |
| Cc1ccc(N(CC(=O)O)C2SC(=O)NC2=O)cc1 (stereo not drawn) | -6% |
| COc1ccc(C(=O)NNC(=O)c2ccccc2[N+](=O)[O-])cc1Br | -6% |
| COC(=O)c1ccccc1NC(=S)NC(NC(=O)c1ccco1)C(Cl)(Cl)Cl (stereo not drawn) | -12% |
| Clc1cccc(N/N=C/c2ccc(N3CCOCC3)cc2)c1 | ? |
| O=C(NNC(=O)c1ccccc1[N+](=O)[O-])c1cnccn1 | -12% |
| c1ccc(Nc2nc3ccccc3o2)cc1 | -12% |
| O=C(Nc1ccc(N2CCCCC2)cc1)c1cncc(Br)c1 | -11% |
| Cc1nn(CC(=O)N/N=C/c2ccc3c(c2)OCO3)c(C)c1Br | -26% |
| O=C(COc1ccc2c(c1)C(=O)CC1(CCCCC1)O2)NCc1ccccn1 | ? |
| O=C1/C(=C/c2cccc3ccccc23)CCCc2ccccc21 | -15% |
| CCCCOC(=O)Nc1cc(C)c(Cl)cc1OC | -11% |

The list continues.
| structure | HPGD block |
| --- | --- |
| Cc1ccc(NC(=O)c2ccnc(C(C)(C)C)c2)cc1 | -22% |
| O=C(O)C1C2C=CC(C3CC23)C1C(=O)O (stereo not drawn) | -7% |
| COC(=O)c1cccc(C23CC4(C2)[C@H](CN(CC2CCCCC2)[C@@H]4c2ccccc2)C3c2ccc(Cl)nc2)c1 (stereo partly drawn) | -10% |
| CC(=O)N1CCN(c2ccc(N=Cc3c(O)n(Cc4ccccc4)c(=O)[nH]c3=O)cc2)CC1 | -22% |
| CC1=C(C(=O)Nc2ccc(F)cc2)C(c2ccc(C)o2)C2=C(CC(C)(C)CC2=O)N1 (stereo not drawn) | -13% |
| CCOC(=O)c1c(C(=O)OCC)c(C)n(CCc2ccc(OC)c(OC)c2)c1C | -6% |
| CC(C)Sc1cc(N2CCOCC2)nc(-c2ccc(Cl)cc2)n1 | -1% |
| COc1ccc(C2CCN(Cc3cccnc3)CC2O)cc1 (stereo not drawn) | -12% |
| CCOC(=O)c1nc2cc3n(c(C)c-2c1C)C(C)C(C)=C3C (stereo not drawn) | ? |
| CCc1ccccc1NC(=S)N(Cc1cccnc1)Cc1ccco1 | -3% |
| COc1cccc(C(=O)NC(=S)N2CCN(c3ccc(C(F)(F)F)cc3[N+](=O)[O-])CC2)c1 | -18% |
| Cc1ccccc1OCc1nnc(SCC(=O)NCc2ccccc2)n1C | -4% |
| Cc1cc2n(n1)C(c1ccc(N(C)C)cc1)Nc1ccccc1-2 (stereo not drawn) | ? |
| O=C1CC(CCC(=O)NC2CC2)c2ccccc2N1 (stereo not drawn) | -5% |
| O=C(c1ccco1)N1CCC2(CCN(Cc3cc(C(F)(F)F)cc(C(F)(F)F)c3)CC2)CC1 | -11% |
| Cc1ccc(-c2nnn3c2nc(NCCc2ccc(S(N)(=O)=O)cc2)c2ccccc23)cc1 | ? |
| COc1ccccc1CCNC(=O)c1ccoc1C | -17% |
| O=c1[nH]c(CN(CCc2ccccc2)S(=O)(=O)c2ccc(Cl)cc2)nc2ccccc12 | -9% |
| COc1ccc(CCNc2oc(-c3ccco3)nc2C#N)cc1 | ? |
| FC(F)(F)c1cc(-c2ccccc2)nc(-n2cncn2)n1 | -8% |

Next results:
| structure | HPGD block |
| --- | --- |
| CCOc1ccc(/C=C/[N+](=O)[O-])c2ccccc12 | 11µM* |
| Cc1ccccc1N(CC(=O)NCc1ccncc1)S(C)(=O)=O | -6% |
| O=C(O)c1cc2ccccc2n1-c1ccccc1 | -8% |
| CCN(CC)CCOCCOc1ccccc1F | -20% |
| Nc1nnnn1NCc1cccc(OCc2ccccc2)c1 | -12% |
| O=C(COC(=O)CCC(=O)c1ccc2c(c1)OCCO2)NCc1ccc2c(c1)OCO2 | -11% |
| CC(C)(C)c1cc(C(=O)O)n[nH]1 | -16% |
| CCCc1cc(=O)[nH]c(SCc2cc(=O)oc3cc(C)c(C(C)C)cc23)n1 | 16µM* |
| N#C/C(C(N)=O)=c1/ccc2c(c1)N1C3=C(CCCC3)CC3CCCCC31N=2 (stereo not drawn) | 0% |
| CCCCOc1ccc(C)cc1CN(CCO)CCO | -15% |
| CNS(=O)(=O)c1cc(OCC(N)=O)c(C)cc1Cl | -15% |
| C=CCn1c(SCC(=O)Nc2ccccc2CC)nnc1-c1ccncc1 | -10% |
| O=C(CN1C(=O)c2ccccc2C1=O)N1CCN(c2ccccn2)CC1 | -8% |
| Cc1c(NC(=S)N/N=C/c2ccc(N(C)C)cc2)c(=O)n(-c2ccccc2)n1C | ? |
| COC(=O)C1CCN(C(=O)COC(=O)c2n[nH]c3ccccc23)CC1 | ? |
| CC/C(=N/N=C(\CC)c1ccccc1)c1ccccc1 | -8% |
| CCN(CC)CCN(Cc1cc2cc(C)ccc2[nH]c1=O)C(=O)Nc1ccccc1OC | -5% |
| Cc1cc(=O)oc2cc(OCC(O)CN3CCc4ccccc4C3)ccc12 (stereo not drawn) | ? |
| Cn1c(=O)[nH]c(=O)c2c1nc(CN1CCN(c3cccc(Cl)c3)CC1)n2Cc1ccccc1Cl | 11% |
| Cc1ccc(C(=O)NCC(=O)OCC(=O)Nc2cc(C)c(C)cc2[N+](=O)[O-])cc1 | -13% |

Shown as a hit in HPGD block, of those listed so far:
| structure | HPGD block |
| --- | --- |
| O=C1Cc2ccccc2N1c1ccccc1 | 35µM* |
| CCOc1ccc(/C=C/[N+](=O)[O-])c2ccccc12 | 11µM* |
| CCCc1cc(=O)[nH]c(SCc2cc(=O)oc3cc(C)c(C(C)C)cc23)n1 | 16µM* |

Carrying on.
mol	HPGD block
CN(C)CCCNCCCNC(=O)c1ccco1	3%
O=C(c1ccc(-n2cnnn2)cc1)N1CCN(C(c2ccccc2)c2ccccc2)CC1	-4%
CCOC(=O)C1CCN(Cc2ccc(F)c(Br)c2)CC1	0%
CCOC(=O)c1cnc2ccc(F)cc2c1Nc1ccc2c(c1)OCCO2	-12%
Cc1cc(C)n2nc(S(=O)(=O)N(C)c3ccccc3)nc2n1	0%
COc1ccc(CNC(=O)c2cc(-c3ccccc3O)n[nH]2)cc1	-12%
COc1cc(/C=N/NC(=O)COc2cccc(F)c2)ccc1OS(=O)(=O)c1ccc(C)cc1	-22%
COc1ccccc1N(CC(=O)NC1CCCCC1)C(=O)CCC(=O)Nc1ccccn1	2%
O=C(c1ccc(Cl)s1)N1CCN(c2nc3ccccc3s2)CC1	-12%
Cc1sc(NC(=O)Cc2ccc3c(c2)OCO3)nc1-c1ccc2c(c1)CCN2C(=O)c1ccccc1F	-10%
CCCn1nc(C(=O)Nc2cc(C(=O)OC)ccc2C)c2ccccc2c1=O	-6%
Cc1noc(N)c1C(=O)Nc1ccc(F)cc1	-12%

Other structures follow:
mol	HPGD block
Cc1cc(N2CCCC2)nc(-c2ccccc2O)n1	?
O=C(COC(=O)c1cccc(Cl)c1Cl)NCCN1C(=O)CSC1=O	-11%
C/C(Cn1nc([N+](=O)[O-])cc1C)=N\NC(=O)c1ccc(O)cc1O	-7%
CCNCc1cc2cc(C)ccc2[nH]c1=O	?
Cc1ccc(S(=O)(=O)Nn2c(C)nnc2-n2nc(C)cc2C)cc1	-1%
Fc1ccc(Cn2nnnc2CN2CCN(C3CCCC3)CC2)cc1	-7%
Cc1cc(C)nc(NC(=O)/C=C/c2ccccc2Cl)c1	-10%
CCOC(=O)C(NC(=O)c1ccccc1)=C1CCCCC1	-8%
CCCc1cc(C(=O)Nc2sc(C)c(CC)c2C#N)no1	-26%
COc1ccc(N2CCN(S(=O)(=O)c3cccs3)CC2)cc1	-7%
O=C1N/C(=C/c2ccco2)C(=O)N1Cc1ccccc1F	-16%
Cc1ccc(NC(=O)c2c(O)c3ccccc3n(C)c2=O)nc1	?

6 records drawn at random from the list so far, as already listed:
mol	HPGD block
Cc1ccc(S(=O)(=O)Nn2c(C)nnc2-n2nc(C)cc2C)cc1	-1%
CCNCc1cc2cc(C)ccc2[nH]c1=O	?
CCCc1cc(C(=O)Nc2sc(C)c(CC)c2C#N)no1	-26%
O=C1N/C(=C/c2ccco2)C(=O)N1Cc1ccccc1F	-16%
O=C(COC(=O)c1cccc(Cl)c1Cl)NCCN1C(=O)CSC1=O	-11%
C/C(Cn1nc([N+](=O)[O-])cc1C)=N\NC(=O)c1ccc(O)cc1O	-7%

(more compounds)
mol	HPGD block
Cc1cccc(Nc2nc(N)c([N+](=O)[O-])c(N3CCOCC3)n2)c1	-13%
Cc1cc2cc(CNC(=O)C3CC3)ccc2n1C	?
CC(O)Cn1c(=O)c2c(nc(Br)n2Cc2ccccc2)n(C)c1=O (stereo not drawn)	-8%
O=C1[C@@H]2[C@H](C(=O)N1Cc1cccnc1)[C@H]1C=C[C@@H]2C1	-4%
CCOC(=O)N1CCN(S(=O)(=O)c2ccc(OCC)cc2)CC1	-5%
Cn1c(=O)[nH]c(=O)c2c1nc(Br)n2CCSc1ncccn1	-10%
NC(=S)N=Nc1c(O)n(C2OC(=O)c3ccccc32)c2ccccc12 (stereo not drawn)	-18%
COc1ccc(N(C(=O)Nc2ccc(Cl)cc2)C2=NCCC2)cc1	-9%
S=c1nc(-c2ccccc2)[nH]n1-c1ccccc1	?
O=C(COC(=O)C1c2ccccc2Oc2ccccc21)NC1CCS(=O)(=O)C1 (stereo not drawn)	-12%
C/C(=C\C(=O)c1ccc(Br)cc1)Nc1ccc(Cl)cc1	-27%
Cc1ccccc1NC(=O)C(C)c1ccc(-c2ccccc2)c(F)c1 (stereo not drawn)	-4%

(list continues)
mol	HPGD block
CCOC(=O)c1nn(C)c(C)c1Cl	-3%
Cc1ccc(S(=O)(=O)N(CC(=O)NCCSc2ccccn2)c2ccc(C)c(C)c2)cc1	-14%
COC(=O)c1cc(OC)c(OC)cc1NC(=O)CSc1ccccc1	-29%
CCOC(=O)c1c(C)n(C)c2ccc(O)c(CN(CC)CC)c12	-9%
Cc1ccc(S(=O)(=O)Nc2ccc(-c3nnc(SCc4ccccc4Cl)o3)cc2)cc1	?
O=C(O)CCC(=O)CCC(=O)c1ccc(Cl)cc1	-17%
COc1ccc(S(=O)(=O)N(CCc2ccccc2)CC(=O)O)cc1C	-8%
CC(C)Cn1c(SCC(=O)N2CC(=O)Nc3ccccc32)nc2ccccc21	-10%
Cc1ccc(NC(=O)NCCc2ccc(S(N)(=O)=O)cc2)cc1	-2%
c1ccc2c(c1)ncn2CCN1CCCCC1	-5%
COc1cccc(NC(=O)C2CCCN(S(=O)(=O)c3cccc4cccnc34)C2)c1 (stereo not drawn)	-1%
CCCCNC(=O)CCCn1c(=O)[nH]c2ccc(Br)cc2c1=O	-13%
